HCMV UL50-53 inh = inhibitors of HCMV UL50-UL53 nuclear egress complex interaction. HTRF UL50-UL53 interaction, normalized percent inhibition. inhibition, % (concentration not given with the values). hit rate 0.15% among 190,000. AID 1918969;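 active means both replicates at 50% or more, plus weaker picks with an unusually low signal ratio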;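 further: stock transfer was 100 nL into about 20 µL; 0% = negative control wells and 100% = wells with untagged competitor protein; inactives centre near -12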
GIV Gai3 FP = blocks GIV peptide binding to rat Galpha-i3; AID 1224905; Galpha-i3/FITC-GIV peptide fluorescence polarization, 90 min; stronger effect = lower value; scaled: aluminum fluoride 0%, vehicle 100%; P08753; percent of control (FP), % (test concentration not listed); hit rate 0.42% among 210,000;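 active means replicate mean at 85% of control or lower, very high polarization wells dropped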;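 further: wells of about 15 µL received 100 nL stock; the first replicate is given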
Target sequence (P08753 whole entry, looked up): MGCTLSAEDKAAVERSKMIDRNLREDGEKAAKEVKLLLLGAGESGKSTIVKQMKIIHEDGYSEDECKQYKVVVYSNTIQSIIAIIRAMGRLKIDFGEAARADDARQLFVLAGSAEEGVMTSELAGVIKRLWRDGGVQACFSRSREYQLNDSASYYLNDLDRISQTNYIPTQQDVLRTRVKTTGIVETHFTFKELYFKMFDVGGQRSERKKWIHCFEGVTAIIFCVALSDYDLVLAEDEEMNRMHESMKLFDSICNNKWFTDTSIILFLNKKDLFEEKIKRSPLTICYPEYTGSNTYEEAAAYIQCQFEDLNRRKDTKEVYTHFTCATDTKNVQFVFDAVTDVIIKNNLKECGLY
Sa growth 42C = S. aureus growth inhibition. hit rate 0.53% among 170,000. relative growth, % (test concentration not listed). S. aureus RN4220 growth, OD600, 20 h, 42 °C; stronger effect = lower value;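 active means growth at 42 °C up to 50% and 20 or more points under that at 30 °C, or under 10% at both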;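 further: 300 nL library stock went into each well; scaled to the means of positive and negative controls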
Sa growth 42C second temp = further read-out of Sa growth 42C, marked with its call; relative growth, %; measured here: growth at 30 °C;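 optical density after 20 h as mean of two plates; 100% = untreated growth and lower means inhibition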
Starred values were filed as active, the others as inactive; nt = not tested or not shown; & = joins results of further samples; ! = not confirmed by another sample.

SMILES	HCMV UL50-53 inh	GIV Gai3 FP	Sa growth 42C	Sa growth 42C second temp
CCCc1cc(C(=O)Nc2c(C)nn(Cc3ccc(C)cc3)c2C)no1	-21	103	100	92
Cc1nc2nc(C)c(NS(=O)(=O)c3ccc(CC(C)C)cc3)c(=O)n2[nH]1	-6	104	109	94
O=C(CSc1c2c(nc3ccc(Cl)cc13)CCCC2)N1CCNC1=O	22	102	nt	nt
CCOC(=O)CC1=CC(SCC(=O)Nc2ccc(Br)c(C)c2)=Nc2cc(C)c(C)cc2N1	-33	109	nt	nt
Nc1ccc(S(=O)(=O)N2CC(=O)NC(=O)C2)cc1	-14	99	101	77
Cc1ccc(NC(=O)CSc2nc3c(sc4ccccc43)c(=O)n2CCCC(=O)NC2CCCC2)cc1C	-26	97	103	90
COc1ccc(Cl)cc1N1C(=O)COCC1=O	-7	96	107	91
N/C(=N\OC(=O)c1ccccc1)c1cccnc1	-11	103	103	68
CC(CC(=O)Nc1ccccc1)CC1=NS(=O)(=O)c2ccccc2N1 (stereo not drawn)	-7	109	96	97
O=C(NCCc1ccc(F)cc1)c1ccco1	-14	nt	88	91
O=C(c1ccc(CN2CCc3ccccc3C2)cc1)N1CCCCC1	-14	99	96	83
O=c1/c(=C\c2ccccc2)sc2nc3ccccc3n12	-36	nt	112	86
CCc1ccc(OC)c(S(=O)(=O)N2CCCCC2)c1	-5	100	105	97
O=C(Nc1cccc2ccccc12)c1cc2ccccc2oc1=O	nt	109	115	90
Cc1cccc(OCC(=O)Nc2ccc(Cl)c(-c3nc4ncccc4o3)c2)c1C	5	99	108	101
COc1ccccc1NC(=O)c1cc2cc(Br)ccc2oc1=N	-1	106	97	93
COC(=O)c1sccc1NC(=O)NCc1cccn1Cc1cccc(C)c1	-24	107	nt	nt
CCOc1c(Br)cc(C2CC(=O)Nc3cc4c(cc32)OCO4)cc1OC (stereo not drawn)	5	109	106	67
O=C(NCCN1CCCCC1)Nc1ccccc1	3	115	98	109
Fc1ccc(-c2nc(Nc3ccc(F)c(Cl)c3)nc3c2COc2ccccc2-3)cc1	-8	105	92	95
COc1cc(C2NC(=O)NC(C)=C2C(=O)OCc2ccc3c(c2)OCO3)cc(Br)c1O (stereo not drawn)	-5	104	nt	nt
Cc1nn(-c2ccccc2)c2c1C(C(=O)NC1CCCC1)N(c1ccc(C(C)C)cc1)C(=O)CS2 (stereo not drawn)	-1	108	nt	nt
Cc1cc(Cc2cccs2)c(=O)[nH]n1	-25	103	102	92
CC(c1ccccc1)N1CCc2[nH]c(=S)[nH]c(=O)c2C1 (stereo not drawn)	12	106	nt	nt
CCSc1nnc2c(n1)OC(c1ccc(C)cc1)N(C(C)=O)c1ccccc1-2 (stereo not drawn)	-25	107	121	89
O=c1cc(O)c2c(=O)n3c4c(cccc4c2o1)CCC3	-8	107	141	81
Cc1nn(C(C)(C)C)c(C(=O)Sc2cccc(C(F)(F)F)c2)c1Br	-7	104	105	86
O=C(CSc1nc2c(c(=O)[nH]1)CCC2)Nc1ccccc1F	-29	106	99	80
Cc1cc(C)c(NC(=O)c2cc(C)nc3c2c(C)nn3-c2cccc(F)c2)c(C)c1	nt	105	111	88
COc1ccc(NC(=O)c2nn(C)c3c2CSc2ccc(C)cc2-3)cc1OC	nt	96	74	79

Six records drawn at random from those above, as already listed:
SMILES	HCMV UL50-53 inh	GIV Gai3 FP	Sa growth 42C	Sa growth 42C second temp
Cc1cc(Cc2cccs2)c(=O)[nH]n1	-25	103	102	92
O=c1cc(O)c2c(=O)n3c4c(cccc4c2o1)CCC3	-8	107	141	81
COc1ccc(NC(=O)c2nn(C)c3c2CSc2ccc(C)cc2-3)cc1OC	nt	96	74	79
Cc1nn(-c2ccccc2)c2c1C(C(=O)NC1CCCC1)N(c1ccc(C(C)C)cc1)C(=O)CS2 (stereo not drawn)	-1	108	nt	nt
O=C(CSc1nc2c(c(=O)[nH]1)CCC2)Nc1ccccc1F	-29	106	99	80
CC(c1ccccc1)N1CCc2[nH]c(=S)[nH]c(=O)c2C1 (stereo not drawn)	12	106	nt	nt

(next part)
SMILES	HCMV UL50-53 inh	GIV Gai3 FP	Sa growth 42C	Sa growth 42C second temp
Nc1ccc(Oc2ccc(C(=O)O)c(C(=O)O)c2)cc1	-3	96	69	86
Cn1nnnc1SCCCNCc1cccc(OCc2ccccc2F)c1	-26	101	113	81
O=C(CC(NC1CCCCC1)C(=O)O)c1ccc(C2CCCCC2)cc1 (stereo not drawn)	2	nt	95	91
Cc1ccc(Cl)cc1NC(=O)CC1C(=O)NCCN1C(=O)c1ccc(F)cc1 (stereo not drawn)	-5	107	nt	nt
O=C(CSc1ccc(Cl)cc1)N1CCc2ccccc21	nt	99	95	87
O=C(O)c1ccc2oc(=O)n(Cc3ccccc3)c2c1	nt	102	111	88
CN1C(=O)C(C)(C)c2cc(S(=O)(=O)NCCN3CCN(c4ccccc4F)CC3)ccc21	nt	103	87	83
O=C1OC2(CCCC2)OC(=O)C1=Cc1ccc(N2CCOCC2)o1	-125	333	84	89
CC1CCCN(c2ccc(C(=O)NCc3ccccc3)cn2)C1 (stereo not drawn)	-49	94	96	83
O=C(Nc1nc2nc(-c3ccccc3)cc(-c3ccccc3)n2n1)c1ccccc1	nt	100	116	89

One compound at a time (already shown). Screens in order: HCMV UL50-53 inh	GIV Gai3 FP	Sa growth 42C	Sa growth 42C second temp
`CC1CCCN(c2ccc(C(=O)NCc3ccccc3)cn2)C1` (stereo not drawn) as listed: -49	94	96	83
`O=C(CSc1ccc(Cl)cc1)N1CCc2ccccc21` as listed: nt	99	95	87
`CN1C(=O)C(C)(C)c2cc(S(=O)(=O)NCCN3CCN(c4ccccc4F)CC3)ccc21` as listed: nt	103	87	83

Among those listed so far, 3 contain a thiophene ring, fused or not.
SMILES	HCMV UL50-53 inh	GIV Gai3 FP	Sa growth 42C	Sa growth 42C second temp
Cc1ccc(NC(=O)CSc2nc3c(sc4ccccc43)c(=O)n2CCCC(=O)NC2CCCC2)cc1C	-26	97	103	90
COC(=O)c1sccc1NC(=O)NCc1cccn1Cc1cccc(C)c1	-24	107	nt	nt
Cc1cc(Cc2cccs2)c(=O)[nH]n1	-25	103	102	92

Going on with the list:
SMILES	HCMV UL50-53 inh	GIV Gai3 FP	Sa growth 42C	Sa growth 42C second temp
CC(C)Cn1cnc2nc(CSc3ccccc3NC(=O)Nc3ccc4c(c3)OCO4)cc(=O)n21	-16	106	nt	nt
O=C(CN1C(=O)c2ccccc2C1=O)Nc1ccc(F)cc1	24	100	92	91
CCOC(=O)c1ccc(NC(=O)C2CCN(c3ncnc4c3sc3ncccc34)CC2)cc1	-17	98	nt	nt
O=C(O)c1ccc(-n2ncc(Cl)c(Cl)c2=O)cc1	-19&-52	78*!	100	89
CC(C)c1cccc(NC(=O)CCc2n[nH]c(=O)[nH]c2=O)c1	-13	107	111	90
O=C1c2ccccc2C(=O)N1CSc1ncccn1	-36	110	116	93
Cc1ccc(N2C(=O)CN(Cc3cccnc3)[C@H]3CS(=O)(=O)C[C@H]32)cc1C	-6	105	nt	nt
Cc1c(C(=O)O)nn(-c2ccc(Cl)cc2)c(=O)c1C#N	-156	nt	81	74
Cc1cc(C)c(NC(=O)C(C)n2nc(C)c3c(C)n(-c4ccccc4)nc3c2=O)c(C)c1 (stereo not drawn)	-3	99	nt	nt
CC(C)S(=O)(=O)c1csc(C(=O)NN)c1-n1cccc1	-29	106	94	84
NS(=O)(=O)c1ccc(NC(=O)CN2CCc3ccccc32)cc1	40	101	99	88
CC(CCc1ccco1)Nc1nc(-c2ccccc2F)no1 (stereo not drawn)	-26	99	90	86
COc1cc(NC(=O)CC(C)n2nc(C)cc2C)cc(OC)c1 (stereo not drawn)	nt	96	102	87
Cc1cccc(CN2CCN(CC(=O)Nc3c(C)cccc3C)S2(=O)=O)c1	nt	112	107	105
COC(=O)C1=C(C)N(C(C)c2ccccc2)C(=O)C1 (stereo not drawn)	-1	111	103	106
O=C(CCCn1c(=S)[nH]c2ccccc2c1=O)N1CCc2ccccc21	-1	108	96	93
COc1ccc(/C=C/c2nc(-c3ccc4c(c3)[nH]c(=O)n4C(C)C)no2)cc1OC	7	109	nt	nt
CC(C)N(C(=O)Cn1cc(S(=O)(=O)Cc2ccc(C(F)(F)F)cc2)c2ccccc21)C(C)C	nt	108	110	91
CN1CCN(S(=O)(=O)c2ccc(CNC(=O)c3ccccc3)s2)CC1	-3	107	119	95
CCCc1nnc(-c2cc3ccccc3n2CCC(C)C)o1	-18	104	nt	nt
CCOC(=O)c1ccc2[nH]c(C)c(C)c2c1	-12	106	88	91
N#Cc1cnc(SCC(=O)N2CCCCC2)nc1N	20	115	97	92
COc1ccc(CCNC(=O)Cn2nnc(-c3cccc(C(F)(F)F)c3)n2)cc1OC	-5	108	113	91
O=C(CN1CCSc2ccccc21)NC1CC1	3	nt	101	97
O=C(Cn1c(-c2ccccc2)cc2ccccc21)NC1=NCCS1	9	nt	93	94
O=C(N/N=C/c1ccc(Cl)cc1)c1cc(=O)nc2sccn12	13	108	106	101
CC1CCCCC1N=C1NC(C)(C)CS1 (stereo not drawn)	-17	nt	93	88
CCCN(Cc1nnc(-c2ccco2)o1)C(=O)/C=C/c1c(C)nn(C)c1C	17	nt	107	100
Cc1ccc(-c2nc(CS(=O)(=O)CC(=O)NCC3CCCO3)c(C)o2)cc1 (stereo not drawn)	nt	102	101	88
CC1CCN(S(=O)(=O)c2ccc3c(c2)N(CC(=O)Nc2ccc(F)c(Cl)c2)C(=O)CO3)CC1	nt	110	125	92
Cc1c2cnn(CC(=O)Nc3ccc4c(c3)OCCO4)c(=O)c2c(C)n1Cc1ccc(F)cc1	-16	102	89	87
Cc1ccc2oc(C(=O)N(Cc3sccc3C)C3CCS(=O)(=O)C3)c(C)c2c1 (stereo not drawn)	-7	100	115	79
Cc1ccc2c(c1)N(C(=O)N1CCC(C(=O)NCc3ccccc3C)CC1)CC(C)O2 (stereo not drawn)	-8	101	127	90
O=C1c2ccccc2C(=O)N1CCCc1nn2c(-c3cccnc3)nnc2s1	-42	103	96	87
CCCCC1(CC)NC(=S)N(c2ccc(C)c(C)c2)N1 (stereo not drawn)	7	104	92	89
Cc1nnsc1-c1onc(C)c1C(N)=O	-65	102	121	85
CCCN(CCC)C(=O)Cn1c(=O)n(CCCCC(=O)NCc2ccc3c(c2)OCO3)c(=O)c2ccccc21	-12	106	97	91
COc1ccc(CCNC(=O)CN2C(=O)c3cccc4cccc2c34)cc1	-5	98	86	86
CN(C)c1nc(-c2ccccc2)cc(-c2ccccc2)c1C#N	-11	105	81	81
CC(C)(C)C1CCc2c(sc3nc(-c4ccccc4)cn23)C1 (stereo not drawn)	-27&20	97&102	107	95
O=C(O)CNS(=O)(=O)c1ccccc1	nt	96	97	92
CCSc1nnc(NC(=O)c2oc3ccccc3c2COC)s1	-11	nt	103	91
Cc1ccccc1Nc1sc(C(=O)c2ccccc2)c(N)c1S(C)(=O)=O	-14	105	108	80
Cc1ccc(C)c(OC(=O)c2cccnc2Cl)c1C	-38	nt	99	90
N#CCn1c(COC(=O)c2ccc3c(c2)OCO3)nc2ccccc2c1=O	-6	nt	89	89
Cc1nc(-c2ccc(Cl)c(S(=O)(=O)N3CCCC(C(=O)N4CCN(C5CCCCC5)CC4)C3)c2)no1 (stereo not drawn)	-19	98	nt	nt
CC1CCCCN1CCCNC(=O)c1cc(Sc2cccc(Cl)c2)nc2ccccc12 (stereo not drawn)	nt	98	112	68
O=c1ccn(Cc2ccccc2)c(=O)n1Cc1ccccc1	3	107	78	101
CC1CC(=O)Nc2ccccc2N1C(=O)CN1CCCCC1 (stereo not drawn)	-20&-24	97&105	99	87
Cc1c(C(=O)c2ccncc2)c2ccccn2c1CCC#N	-86	nt	71	90

New compounds follow.
SMILES	HCMV UL50-53 inh	GIV Gai3 FP	Sa growth 42C	Sa growth 42C second temp
COc1cc(NC(=O)C2CCCN(S(=O)(=O)c3cc(-c4noc(C)n4)ccc3Cl)C2)cc(OC)c1 (stereo not drawn)	-3	96	nt	nt
O=C(c1ccc(=O)[nH]n1)N1CCN(S(=O)(=O)c2ccc(Br)s2)CC1	-6	nt	89	92
COC(=O)c1ccc(NC(=O)COc2cccc3ccccc23)cc1	-8	nt	87	101
O=C(O)CS(=O)(=O)Cc1ccccc1	6	101	98	83
Cc1c(C(=O)N2CCN(Cc3ccc4c(c3)OCO4)CC2)cccc1-n1nnc2cccnc21	-39	126	nt	nt
O=C(OCC(=O)c1c[nH]c2ccccc12)C1=COCCO1	-25	nt	90	87
COc1ccc(C2C(C(=O)N3CCCC3)CC(=O)N2c2ccc(OC)cc2)cc1 (stereo not drawn)	-15	106	99	89
O=C(NC1CCCC1)c1[nH]nc2c1CCc1ccccc1-2	-19	101	111	93
CCOC(=O)c1cc(C#N)c(SC)nc1-c1ccccc1	-26	102	88	67
CC1(C)CC(=O)C2=C(C1)Nc1ccccc1NC2c1ccc(-c2ccc([N+](=O)[O-])cc2Cl)o1 (stereo not drawn)	-28	103	nt	nt
CC1CCc2c(sc(NC(=O)c3sc4ccccc4c3Cl)c2C(=O)OC(C)C)C1 (stereo not drawn)	-4	98	nt	nt
Cc1ccccc1CNC(=O)CN1CCSc2ccccc21	nt	104	93	89
O=C(OCCSC1=NS(=O)(=O)c2ccccc21)c1ccccc1	-6	nt	89	100
CCOC(=O)c1ccc(-c2ccc(C=C(C#N)C#N)o2)cc1	-18	105	84	87
CCOC(=O)c1cc(C)[nH]c1C	0	105	109	83
COC(=O)CN1C(=O)CSc2ccc(S(=O)(=O)Nc3ccc(Cl)cc3C)cc21	nt	110	106	106
COc1cccc(CNC(=O)CCCn2ccc3cc(S(=O)(=O)N4CCCC4)ccc32)c1	-2	101	nt	nt
